Screening results deposited in PubChem BioAssay by several laboratories.
CD11b adhes enh – enhancers of CD11b/CD18 adhesion to fibrinogen, primary screen, K562 cells, luminescence. ATPlite luminescence. activation, % at 10 µM. actives 0.07% (n = 93,000);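 active = 10 µM primary screen giving 50% or more activity, confirmed by 40% or more on retest at that dose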; note: strong numbers were not always called active
Target sequence (P05107 whole entry, looked up, other chains not shown): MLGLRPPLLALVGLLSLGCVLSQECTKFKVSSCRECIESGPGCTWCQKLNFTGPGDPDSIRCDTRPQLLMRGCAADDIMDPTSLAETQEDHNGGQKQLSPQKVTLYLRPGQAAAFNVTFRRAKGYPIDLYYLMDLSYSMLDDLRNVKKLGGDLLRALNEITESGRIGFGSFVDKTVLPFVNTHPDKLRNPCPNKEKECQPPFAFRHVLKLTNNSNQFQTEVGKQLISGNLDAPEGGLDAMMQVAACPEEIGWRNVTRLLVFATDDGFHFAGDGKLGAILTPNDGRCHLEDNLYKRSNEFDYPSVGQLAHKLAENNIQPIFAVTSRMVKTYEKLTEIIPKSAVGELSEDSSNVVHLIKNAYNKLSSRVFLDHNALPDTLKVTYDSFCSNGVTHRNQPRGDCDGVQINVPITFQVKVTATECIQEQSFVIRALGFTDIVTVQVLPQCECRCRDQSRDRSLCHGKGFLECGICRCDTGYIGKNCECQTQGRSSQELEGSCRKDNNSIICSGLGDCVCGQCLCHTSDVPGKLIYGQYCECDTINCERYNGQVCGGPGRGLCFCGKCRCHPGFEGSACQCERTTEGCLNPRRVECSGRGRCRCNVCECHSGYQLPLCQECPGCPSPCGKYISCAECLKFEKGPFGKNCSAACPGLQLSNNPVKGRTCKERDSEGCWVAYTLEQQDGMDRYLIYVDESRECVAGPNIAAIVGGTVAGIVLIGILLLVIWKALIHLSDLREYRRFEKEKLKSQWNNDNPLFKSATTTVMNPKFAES
ERa coact pot – enhancers of ERα–SRC-1 coactivator binding, primary screen, biochemical, TR-FRET, ERα LBD, low estradiol | coactivator binding (% of control), % at 25.6 µM | actives 1.3% (n = 86,000) | TR-FRET ERalpha-LBD/SRC-Cy5 coactivator binding, 2 h; 100 = basal binding, no effect | Estrogen receptor (Homo sapiens), P03372; in the data active = activity above about 200%;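 note: binding measured in presence of low estradiol as agonist stimulus; 0% = peptide alone without receptor and 100% = receptor with peptide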
ERa SRC1 inh – ERα–SRC-1 coactivator interaction inhibitors, primary screen, biochemical, TR-FRET, ERα LBD, estradiol-bound; Estrogen receptor (Homo sapiens), P03372; TR-FRET ER-alpha LBD / SRC-1 peptide; inhibition, % at 25.6 µM; actives 1.7% (n = 86,000); in the data active = inhibition above about 50%;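 note: 0% = receptor plus peptide control and 100% = peptide only without receptor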
Mac1 fbg inh – inhibitors of CD11b/CD18 adhesion to fibrinogen, primary screen, K562 cells, luminescence; ATPlite luminescence; Mn2+ added to activate the integrin; inhibition, % at 10 µM; actives 0.54% (n = 93,000); AID 1497, 2009;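 active = primary inhibition of 50% or more at 10 µM, then 40% or more on retest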; note: some results filed as inactive read as strong as hits
HUVEC inhibit – inhibitors of HUVEC proliferation, primary screen, cell-based, 384-well. CellTiter-Glo luminescence, 72 h; hits give low values. viability, % at 10 µM (by protocol). actives 1.1% (n = 86,000). AID 648, 2007;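 active = viability at or below 30%; inactive = viability above 30%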;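 note: 100% = median luminescence of DMSO-only cell control wells on each plate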
H69AR growth 86K – proliferation blockers of H69AR lung cancer cells, primary screen, cell-based, human, 86K library. H69AR lung tumor viability, ATP luminescence, 72 h; hits give low values. viability, % at 10 µM. actives 6% (n = 85,000);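 active = viability at or below 40%; inactive = viability above 40%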;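 note: multidrug resistant small cell line overexpressing MRP-1 efflux transporter; 100% = mean luminescence of untreated control wells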
Fibroblast inh – antiproliferative effect on LL 47 fibroblasts – human, LL 47 cells, CellTiter-Glo luminescence, primary screen | LL 47 human lung fibroblast viability, ATP luminescence; hits give low values | viability, % at 10 µM | actives 1.1% (n = 85,000) | AID 719, 2007;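 active = viability at or below 50% in the single dose screen; inactive = viability above 50%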;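 note: compound exposure lasted 72 h before the ATP readout; 100% = median luminescence of untreated cell-only wells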
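Times – overnight cell rest, 72 h compound treatment at 37 °C · Test system – human lung fibroblast line LL 47, low passage · Amount – 1,150 cells in each well · Controls – cell-only wells, no compound · Doses – 0.1% DMSO in all compound wells · Measured by – CellTiter-Glo luminescence · Buffer or medium – IMEM plus 15% FBS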
* = called active by the depositor; · = no result given; [ ] = remark or other dose. Not all compounds are listed, so the mix of outcomes need not match the whole.

Value order – CD11b adhes enh	ERa coact pot	ERa SRC1 inh	Mac1 fbg inh	HUVEC inhibit	H69AR growth 86K	Fibroblast inh
Cc1ccc(S(=O)(=O)/N=C(\c2ccc(Cl)cc2)N2CCOCC2)cc1
    -1	·	·	6	·	·	·
O=C(Nc1ncc(Cc2cccc(Cl)c2)s1)c1cccs1
    -1	110	-4	3	31	35*	84
CC(C)Cn1cnc2c(N)nc3ccccc3c21
    1	109	19	38	100	70	90
O=C1c2ccccc2CCC12N=NCC2c1ccccc1 (stereo unspecified)
    ·	80	-1	·	92	80	86
O=C(Cc1cc(=O)[nH][nH]1)N/N=C/C(Cl)=C/c1ccccc1
    -2	·	·	-13	·	·	·
O=C(N/N=C/c1ccco1)c1ccccn1
    -2	·	·	-10	·	·	·
CCC(Sc1nc2sc(C(=O)OC)c(C)c2c(=O)n1N)C(=O)N(CC)CC (stereo unspecified)
    2	113	-11	-13	87	19*	96
CC(C)(C)Nc1nc(N2CCCC2)nc(N2CCCC2)n1
    0	101	2	-4	45	41	56
C=CCn1c(Cc2ccc(OC)cc2)nnc1SCC(=O)c1cccc([N+](=O)[O-])c1
    -1	·	·	-1	·	·	·
CCOc1ccc2c(=O)c(Oc3ccccc3)c(C)oc2c1
    ·	96	-8	·	115	101	98
CCc1ccc(Nc2ncccc2C#N)cc1
    10	·	·	13	·	·	·
O=C(CSc1nnc(Cc2cc(=O)[nH]c(=O)[nH]2)n1-c1ccccc1)N1CCCc2ccccc21
    ·	113	-1	·	99	96	104
Nc1c(C(=O)NCc2ccco2)nnn1-c1ccccc1
    ·	112	-6	·	88	100	99
O=C(O)COc1ccc(-c2nccc(-c3cccs3)n2)cc1
    2	·	·	7	·	·	·
O=C(Cc1c[nH]c2ccccc12)OCC(=O)c1ccccc1
    ·	101	-4	·	86	87	93
CC(C)C(=O)NCCCc1ccccc1
    ·	97	-2	·	99	88	104
CCOC(=O)Cc1csc(NC(=S)NC(=O)c2ccc(F)cc2)n1
    -4	·	·	-7	·	·	·
Cc1ccc(/C=N/n2nnnc2N)cc1[N+](=O)[O-]
    -1	·	·	2	·	·	·
Cn1c(-c2sccc2OCc2ccccc2)n[nH]c1=S
    -4	·	·	14	·	·	·
COc1ccccc1N1CCN(C(=O)/C=C/c2ccc3c(c2)OCO3)CC1
    3	·	·	15	·	·	·

4 entries drawn at random from the list so far:
Value order – CD11b adhes enh	ERa coact pot	ERa SRC1 inh	Mac1 fbg inh	HUVEC inhibit	H69AR growth 86K	Fibroblast inh
O=C(CSc1nnc(Cc2cc(=O)[nH]c(=O)[nH]2)n1-c1ccccc1)N1CCCc2ccccc21
    ·	113	-1	·	99	96	104
CC(C)C(=O)NCCCc1ccccc1
    ·	97	-2	·	99	88	104
CCc1ccc(Nc2ncccc2C#N)cc1
    10	·	·	13	·	·	·
CC(C)(C)Nc1nc(N2CCCC2)nc(N2CCCC2)n1
    0	101	2	-4	45	41	56

(cont.)
Value order – CD11b adhes enh	ERa coact pot	ERa SRC1 inh	Mac1 fbg inh	HUVEC inhibit	H69AR growth 86K	Fibroblast inh
CCOc1ccccc1/C=N/NC(=O)Cc1csc(Nc2cccc(C(F)(F)F)c2)n1
    11	·	·	-13	·	·	·
CCCCn1ccnc1C(=O)c1ccc(S(=O)(=O)N(CCOC)CCOC)cc1
    -6	·	·	18	·	·	·
CCOC(=O)CSc1n[nH]c(NC(=O)c2ccccc2)n1
    -4	·	·	14	·	·	·
O=C(O)c1cccc(C(=O)O)n1
    2	116	-11[fluorescence artefact?]	-1	89	100	93
Cc1ccc(CSc2nc3ccccc3cc2C=O)cc1
    -5	·	·	31	·	·	·
Cc1ccc(OCCCN(C)C)c(Br)c1
    5	·	·	-10	·	·	·
CCN1CCN(C(=O)CS(=O)Cc2nc(-c3ccc(OC)cc3)oc2C)CC1 (stereo unspecified)
    13	128	-22[fluorescence artefact?]	-1	101	92	94
COc1ccc(/C=C2\NC(=S)N(CC3CCCO3)C2=O)c(OC)c1 (stereo unspecified)
    14	·	·	-20	·	·	·
Cc1ccc2c(c1)nnn2C1CCN(S(=O)(=O)c2ccc(C(=O)N3C(C)CCCC3C)cc2)CC1 (stereo unspecified)
    -4	104	4	-1	83	21*	99
Cn1nc(C(F)(F)F)c(C(=O)Nc2ccc(Cl)cc2)c1Cl
    -4	·	·	-8	·	·	·
CCOc1cc(CNCc2cccs2)cc(Br)c1OC
    3	·	·	-4	·	·	·
Cc1ccc2oc(-c3cccc(NC(=S)NC(=O)/C=C/c4ccco4)c3)nc2c1
    43	·	·	-25	·	·	·
O=C1S/C(=C/c2ccc(N3CCOCC3)o2)C(=O)N1Cc1ccc(F)cc1
    1	78	-8	6	71	26*	67
CCn1c(SCc2ccc(C#N)cc2)nnc1-c1ccc(S(=O)(=O)N2CCCCC2)cc1
    ·	124	-4	·	75	34*	87
CCc1ccc(OCC(=O)NC(=S)Nc2ccc(C)cc2C)c(Br)c1
    2	·	·	-22	·	·	·
Cc1c(NC(=O)C(C)N2C(=O)c3ccccc3C2=O)c(=O)n(-c2ccccc2)n1C (stereo unspecified)
    ·	98[fluorescence artefact?]	5[fluorescence artefact?]	·	90	98	92
COC(=O)c1cccc(C(=O)Oc2cccc(Br)c2)n1
    -1	75	-2	0	90	·	98
COC(=O)COc1ccc(Cl)cc1C1Nc2ccccc2C(=O)N1c1ccc(OC)cc1 (stereo unspecified)
    0	·	·	-10	·	·	·
O=C(Nc1cccc(-c2nc3ccccc3s2)c1)c1ccc2c(c1)OCO2
    -1	·	·	-19	·	·	·
O=c1[nH]c(CSc2nnc(-c3ccccc3)n2C2CCCCC2)nc2ccccc12
    0	·	·	-8	·	·	·

Going on with the list.
Structure | CD11b adhes enh | ERa coact pot | ERa SRC1 inh | Mac1 fbg inh | HUVEC inhibit | H69AR growth 86K | Fibroblast inh
C/C(N)=C(/C#N)C(=O)COc1ncnc2ccc(Br)cc12 | · | 100 | -6 | · | 81 | 93 | 86
CCc1nnc(NC(=O)c2cc(-c3ccccc3)nn2-c2ccccc2)s1 | · | 101 | -6 | · | 104 | 65 | 96
Cc1oc(/C=N/NC(=O)CN(c2ccccc2Br)S(C)(=O)=O)cc1Br | 8 | · | · | 7 | · | · | ·
CCOc1cccc(/C(O)=C2/C(=O)C(=O)N(Cc3cccnc3)C2c2ccco2)c1 (stereo unspecified) | · | 90 | 3 | · | 96 | 77 | 95
CCOc1cc(CNc2ccc3c(c2)OCCO3)cc(Br)c1OCC | -3 | · | · | 22 | · | · | ·
CCCCOc1ccccc1C1CC(=O)NC2=C1C(=O)CCC2 (stereo unspecified) | · | 108 | 6[fluorescence artefact?] | · | 53 | 28* | 48*
CCCC1S/C(=N/N=C/c2ccc(OC)cc2)N(Cc2ccc(OC)cc2)C1=O (stereo unspecified) | · | 107[fluorescence artefact?] | -12 | · | 101 | 83 | 85
O=c1[nH]c2cc3c(cc2cc1CN(CCCO)Cc1nnnn1Cc1ccc(F)cc1)OCO3 | 4 | · | · | -21 | · | · | ·
OCc1nnn(-c2cccc(C(F)(F)F)c2)c1CO | · | 113 | -14[fluorescence artefact?] | · | 90 | 89 | 98
O=C(Nc1ccc(-c2csc(-c3ccccc3)n2)cc1)c1ccccc1Cl | 3 | · | · | 6 | · | · | ·
c1ccc(-c2csc(N3CCc4ccccc4C3)n2)cc1 | -1 | · | · | -3 | · | · | ·
O=C(c1cccnc1)N1CCN(Cc2cccc(F)c2)CC1 | -4 | · | · | 1 | · | · | ·
CCN1CCc2c(sc(N)c2C(N)=O)C1 | 9 | · | · | -4 | · | · | ·
CCOC(=O)c1cc2c(=O)n3ccccc3nc2n(CCCOC)c1=NC(=O)C(C)(C)C | · | 104 | 3 | · | 101 | 70 | 105
NNC(=O)C=C1CCN(c2ncc(C(F)(F)F)cc2Cl)CC1 | 0 | · | · | 4 | · | · | ·
N#Cc1ccc(C2=NC(C(F)(F)F)(C(F)(F)F)c3c(n(Cc4ccco4)c(=O)[nH]c3=O)N2)cc1 | · | 72 | -12 | · | 58 | 35* | 75
NC(=O)c1ccc(-c2ncc(-c3ccccc3)o2)cc1 | 2 | · | · | -2 | · | · | ·
CC(C)C(=O)N1CCN(C2=NS(=O)(=O)c3ccccc32)CC1 | -3 | 102 | 6 | -7 | 91 | 86 | 98
COc1ccc(/C(O)=C2/C(=O)C(=O)N(CC3CCCO3)C2c2ccc(OC)c(OC)c2)cc1 (stereo unspecified) | · | 119 | 23 | · | 100 | 96 | 102
Cc1cccc(-n2nnc(C(=O)NCc3ccco3)c2N)c1 | · | 112 | 3[fluorescence artefact?] | · | 92 | 108 | 105
COC(/C=C/Nc1ccc(Br)cc1)=C(C#N)C#N | 24 | · | · | -6 | · | · | ·
CC(C)(C)C1CCC2(CC1)NC(CO)(CO)CO2 (stereo unspecified) | · | 120 | 3 | · | 102 | 89 | 115
Cc1ccc(OCCNC(=O)c2cc(-n3cnnc3)ccc2Cl)cc1C | 0 | · | · | 3 | · | · | ·
CCOC(=O)c1ccc(NC(=O)CCOc2ccc(OC)cc2)cc1 | -2 | 112 | -4 | -26 | 96 | 89 | 97
Cc1ccc(CC(=O)N2CCN(c3cccc(C(F)(F)F)c3)CC2)cc1 | 2 | 86 | -14 | -4 | 118 | 100 | 93
Cc1ccc(/C(N)=N/OC(=O)Cc2cccs2)cc1 | 0 | · | · | 6 | · | · | ·
Cc1ccc(-c2ccc(=O)n(CC(=O)NCCN(C)C)n2)cc1 | · | 104 | -1 | · | 100 | 101 | 102
CC(c1ccc(F)cc1)n1c(-c2ccc3ccccc3n2)n[nH]c1=S (stereo unspecified) | -1 | · | · | -2 | · | · | ·
Cc1ccc(S(=O)(=O)N2CCC(CN3C(=O)c4cccc5cccc(c45)C3=O)CC2)cc1 | -2 | · | · | -4 | · | · | ·
CN1C(=O)C(CC(N)=O)N(NC(=O)c2ccc(Cl)cc2)C1=S (stereo unspecified) | · | 98[fluorescence artefact?] | -3 | · | 108 | 98 | 106
CSC1=N/C(=C\c2ccc3c(c2)OCO3)C(=O)S1 | · | 92 | -10 | · | 90 | 79 | 102
Cn1c(=O)c2c(nc(NCC3CCCO3)n2Cc2cccc(Br)c2)n(C)c1=O (stereo unspecified) | · | 108 | -1 | · | 84 | 85 | 93
S=c1[nH]nc(C23CC4CC(CC(C4)C2)C3)n1Cc1ccco1 | · | 105 | 0 | · | 96 | 67 | 100
CN(C)c1ncc(S(=O)(=O)c2ccccc2)c(-c2ccc(Cl)cc2Cl)n1 | 2 | · | · | -11 | · | · | ·
O=S(=O)(Nc1cccnc1Cl)c1ccc2c(c1)OCCO2 | · | 121 | 2 | · | 98 | 95 | 100
Cn1c2c(c(=O)n(C)c1=O)[C@@]1(C(=O)Nc3ccccc31)C(C#N)=C(N)O2 | 1 | · | · | -1 | · | · | ·
Cc1ccccc1C(=O)Nc1ccccc1-c1nnn(CC(=O)Nc2ccc3c(c2)OCCO3)n1 | -1 | · | · | -7 | · | · | ·
CC1=NN(c2ccc(C)cc2C)C(=O)C1C(c1ccccc1)C1C(=O)N(c2ccc(C)cc2C)N=C1C (stereo unspecified) | 6 | · | · | -2 | · | · | ·
Cc1cccc(NC(=S)NC(=O)c2cc(-c3ccccc3)nc3ccccc23)c1 | 6 | · | · | -11 | · | · | ·
CCc1ccc(OCCNC(=O)c2cc(SC)ccc2Cl)cc1 | 10 | · | · | -3 | · | · | ·
Cc1[nH]c(=O)c(C#N)c2c1CSC(C)(C)C2 | · | 106 | 0 | · | 98 | 82 | 105
